VACV mCherry inh: qHTS for Stage-Specific Inhibitors of Vaccinia Orthopoxvirus: mCherry Reporter Primary qHTS | AID 720579, 2013 | Potency, µM (doses to about 36.5 µM), inactives show top-dose activity change, negative = inhibition, hits mostly inhibitors | Vaccinia virus mCherry reporter infection, fluorescence; about a quarter of the inactives have no number | actives 0.63% (n = 310,000); active = well fitted inhibition curve with a large enough effect; inconclusive = small, poorly fitted or top-dose-only effect; inactive = no such curve, though single readings can be large or run the other way; tested in A549 cells; also: nearly all actives have a fitted effect of over 35% in size; inactives centre near -10
VACV Venus inh: qHTS for Stage-Specific Inhibitors of Vaccinia Orthopoxvirus: Venus Reporter Primary qHTS; actives 0.46% (n = 330,000); Vaccinia virus Venus reporter expression, fluorescence; Potency, µM (titrated, usually from 36.5 µM), for the others: at the highest dose activity change, negative = inhibition, usual class: inhibitors; AID 720580, 2013; active means well fitted inhibition curve with a large enough effect; inconclusive means small, poorly fitted or top-dose-only effect; inactive means no such curve, though single readings can be large or run the other way; tested in A549 cells; also: nearly all actives have a fitted effect of over 30% in size; inactives centre near -10
* = called active by the depositor; i = inactive; ? = inconclusive; · = no result given; [ ] = another dose, or the depositor's remark. % is scaled to controls: 0 for no effect and ±100 for the full control effect; potency is read from the fitted curve at half-maximal effect. Hits appear at their usual frequency. Share with any hit: about 0.87%.

Fields – VACV mCherry inh	VACV Venus inh
1) COc1cc(C(=O)Nc2ccccc2-c2nc(-c3ccc(C)cc3)no2)cc(OC)c1OC
  -29.2%	-26.4%
2) O=[N+]([O-])c1ccc(N2CCN(c3ccc(O)cc3)CC2)cn1
  -27.9%	-18.5%
3) CCOC(=O)c1cnc2ccc(Br)cc2c1NCCO
  -5.6%	-12.5%
4) CC1CCCN(C(=O)COc2ccc(-c3ccccc3)cc2)C1 (configuration not stated)
  i	-20.4%
5) O=C(Cc1ccccc1[N+](=O)[O-])NCC(O)c1ccc2c(c1)OCO2 (configuration not stated)
  -5.0%	-10.5%
6) CN(CC(=O)Nc1ccccc1Sc1ccccc1)Cc1nc2ccccc2c(=O)[nH]1
  -26.5%	-16.5%
7) CC(C)NC(=O)N(C)C[C@H]1Oc2ccc(NC(=O)Nc3ccccc3)cc2C(=O)N([C@H](C)CO)C[C@@H]1C
  i	-5.3%
8) CCOC(=O)N1CCC(NC(=O)CCc2nc(-c3ccc(C)cc3)no2)CC1
  ·	-26.2%
9) CCOc1ccc(NC(=O)C2CCCN(S(=O)(=O)c3cnc[nH]3)C2)cc1 (configuration not stated)
  -13.2%	-5.9%
10) COC(=O)C(C)Oc1cc(C)cc2oc(=O)c3c(c12)CCC3 (configuration not stated)
  -7.7%	-13.7%
11) COc1ccccc1C(O)Cc1nc2ccccc2n1C (configuration not stated)
  ·	1.3%
12) CCCNC(=O)N(C)C[C@@H]1Oc2ncc(-c3ccncc3)cc2C(=O)N([C@H](C)CO)C[C@@H]1C
  i	-4.9%
13) Cc1ccccc1CN1c2ccccc2-c2nc(SCC(N)=O)ncc2S1(=O)=O
  -13.5%	-8.3%
14) CCOC(=O)c1ccc(NC(=S)N(CCCN2CCCC(C)C2)Cc2cccs2)cc1 (configuration not stated)
  i	-6.6%
15) CCCCNC(=O)Nc1nnc(-c2ccccc2)o1
  -9.9%	-1.1%
16) Cc1ccc(OCC(=O)N/N=C/c2cn[nH]c2-c2ccc(Cl)c(Cl)c2)cc1
  ?	?
17) Cc1cnc(NC(=O)CSC(=S)N2CCOCC2)s1
  i	-9.8%
18) C[S+](CC[C@H](N)C(=O)O)C[C@H]1O[C@@H](n2cnc3c(N)ncnc32)[C@H](O)[C@@H]1O (some centres not stated)
  -11.8%	-7.9%
19) COc1ccc(C2CC(c3ccccc3)=NN2C(=O)CN2CCN(Cc3ccccc3)CC2)cc1 (configuration not stated)
  -6.5%	-5.2%
20) Oc1ccccc1-c1nc(N2CCN(Cc3ccccc3)CC2)c2ccccc2n1
  -5.8%	-8.4%
21) CNc1nc(NCCOc2ccccc2)c2sccc2n1
  11.3%	-9.8%
22) CCOC(=O)NC(=O)C(=CNc1ccc(C)cc1)C(=O)NC(=O)OCC
  i	-4.0%
23) COc1ccc(-c2nc(SCC(=O)Nc3ccc4c(c3)OCO4)c(-c3ccc(OC)cc3)[nH]2)cc1
  ?	?
24) Cc1onc(-c2ccccc2Cl)c1C(=O)Nc1ccc(-c2cn3cccnc3n2)cc1
  -10.3%	-14.8%
25) Cc1ncc(CO)c2c1Oc1nc(-c3ccc(F)cc3)nc(SCc3ccc(F)cc3Cl)c1C2
  -12.6%	-5.9%
26) CCOc1ccc(/C=N/NC(=O)C2CC2)c(OCC)c1
  -0.9%	-6.7%
27) O=C(CN1C(=O)C2(SCC(=O)N2c2ccc(F)c(F)c2)c2ccccc21)Nc1cccc(Cl)c1 (configuration not stated)
  -26.2%	-28.9%
28) CN(C)C(=O)c1cc(C(=O)c2ccccc2)c[nH]1
  -9.5%	-14.4%
29) COc1cccc(NC(=O)c2ccc(NC(=O)C(C)C)cc2)c1
  -11.2%	8.0%
30) Cc1nc(SCC(=O)Nc2ccc(Cl)cc2C(F)(F)F)[nH]c(=O)c1Cc1ccccc1
  1.3%	-0.5%

The list goes on:
Fields – VACV mCherry inh	VACV Venus inh
31) Cc1cc(C(=O)N2CCC2(C)C(=O)O)c(C)o1 (configuration not stated)
  1.2%	-4.2%
32) Cc1ccccc1NC(=O)c1cccc(C(=O)Nc2ccccc2C)c1
  i	-13.2%
33) Cc1cccn2c(=O)c3cc(S(=O)(=O)c4ccccc4)c(=N)n(Cc4cccnc4)c3nc12
  ?	3.7%
34) COc1ccc(-n2c(=S)[nH]c3cc(C(=O)NCc4ccccc4OC)ccc3c2=O)c(OC)c1
  i	-9.9%
35) CN(CC(=O)N1CCN(Cc2ccccc2)CC1)C(=O)Cc1cccc2ccccc12
  -7.8%	-18.2%
36) COc1ccc(NC(=O)C(C)SCc2ccccc2)cc1OC (configuration not stated)
  -5.7%	-6.6%
37) CCOC(=O)c1oc2ccccc2c1COC(=O)CNC(=O)c1ccccc1
  2.3%	-2.4%
38) COc1ccccc1NC(=O)CN(c1ccccc1F)S(C)(=O)=O
  i	?
39) O=C(NNC(=O)c1cc(Br)ccc1O)c1csc(N2CCOCC2)n1
  ?	?
40) CCN(C(=O)CCCC(=O)N(CC)c1ccccc1)c1ccccc1
  -3.1%	-6.1%
41) Cc1c(Cl)cccc1NC(=S)NCCc1ccccn1
  i	-9.8%
42) Cc1ccc(CNC(=O)NC23CC4CC(CC(C4)C2)C3)cc1
  -20.1%	-19.7%
43) CC(NC(=O)[C@H](NC(=O)[C@@H]1Cc2ccccc2CN1)c1ccccc1)c1ccccc1 (some centres not stated)
  -3.7%	-7.2%
44) CCN(C(=O)COC(=O)/C=C/c1ccccc1)C1CCCCC1
  -14.9%	-8.5%
45) CCOC(=O)c1cnn(-c2ncnc3c2oc2ccccc23)c1N
  i	-3.0%
46) C=CCn1c(SCC(=O)Nc2ccc(O)cc2)nc2sc(CC)cc2c1=O
  ?	-1.3%
47) CCc1ccc(NC(=O)c2ccc(F)c(S(=O)(=O)N3CCN(c4cc(C)ccc4C)CC3)c2)cc1
  -4.4%	-27.0%
48) O=C(O/N=C(/c1ccccc1)c1ccncc1)c1cccc(F)c1
  -11.7%	-11.0%
49) c1ccc(Oc2cccc(OCCCn3cncn3)c2)cc1
  -23.9%	-21.4%
50) COC(=O)Cn1c(=O)c2c(nc3n2CC(C)CN3c2ccc(C)c(C)c2)n(C)c1=O (configuration not stated)
  -0.2%	-15.3%
51) COc1cc(-c2nc3c(c(C)nn3-c3ccccc3)c3cc(OC)c(OC)cc23)ccc1O
  ·	-15.8%
52) COc1ccc(C(CNc2ccc(S(=O)(=O)N3CCN(C)CC3)cc2[N+](=O)[O-])N(C)C)cc1 (configuration not stated)
  -14.9%	-9.2%
53) COc1ccccc1CC(=O)Nc1ccc2[nH]ncc2c1
  i	-0.8%
54) CC(C)CC(C(=O)NC1CCCC1)N(Cc1ccc2c(c1)OCO2)C(=O)c1snc(C(N)=O)c1N (configuration not stated)
  i	12.2%
55) CCS(=O)(=O)N1CCCc2cc(C(=O)Nc3cccc(C(C)=O)c3)ccc21
  -2.5%	-13.2%
56) CCN1CCN(C(c2ccccc2)c2nnnn2C(C)(C)C)CC1 (configuration not stated)
  -5.9%	-3.7%
57) O=C(CCN1Cc2ccccc2OC(c2ccccc2)C1)N[C@@H]1CS(=O)(=O)C[C@H]1O (some centres not stated)
  -11.3%	1.1%
58) COc1ccc(CNC(=O)c2cc(Nc3ccc(C)cc3C)nc3ccccc23)cc1
  i	-3.9%
59) Cc1noc2ncnc(SCc3ccc(C(F)(F)F)cc3)c12
  -17.8%	-6.4%
60) c1ccc(Oc2cccc(CN3CCCCC3)c2)cc1
  -4.3%	-13.5%

(continued)
Fields – VACV mCherry inh	VACV Venus inh
61) COc1ccc(N2CC(C(=O)Nc3ccc4c(c3)OCCO4)CC2=O)cc1 (configuration not stated)
  1.8%	-3.4%
62) O=C(COC(=O)c1ccc(F)cc1)Nc1nc2ccc([N+](=O)[O-])cc2s1
  -25.1%	-15.3%
63) COC(=O)c1ccccc1NC(=O)CN1C(=O)COc2ccc(Cl)cc21
  -15.9%	-6.8%
64) Cc1cccc(Nc2nc3c(S(=O)(=O)c4ccc(Br)cc4)nnn3c3ccsc23)c1C
  -13.3%	-29.9%
65) Cc1cc(NC(=O)NC2CCCN2S(=O)(=O)c2ccc(Cl)cc2)no1 (configuration not stated)
  ·	?
66) CN(Cc1cnc2nc(N)nc(N)c2n1)c1ccc(C(=O)NC(CCC(=O)O)C(=O)O)c2ccccc12 (configuration not stated)
  3.16µM*	?
67) O=C(O)c1cccc(NC(=O)N2C[C@H]3C[C@@H](C2)c2cccc(=O)n2C3)c1
  1.0%	3.5%
68) CC(=O)N1N=C(c2ccccc2)CC1c1cccs1 (configuration not stated)
  -7.0%	-17.2%
69) COc1ccc(C2(C(=O)NCC3Cc4cccc(-c5nc(C)cnc5C)c4O3)CCCC2)cc1 (configuration not stated)
  -2.4%	0.0%
70) CCOCCCNC(=O)/C(C#N)=C/c1ccc([N+](=O)[O-])o1
  34.1%[activator]	51.1%[activator]
71) O=C(Nc1cccc(F)c1)OC(CN1CCCCC1)C(F)(F)F (configuration not stated)
  ·	-16.5%
72) O=C(CSc1nncc2ccccc12)N1CCCCC1
  -4.8%	-13.0%
73) CCCC(C(=O)N1CCOCC1)N1C(=O)C2C3C=CC(C3)C2C1=O (configuration not stated)
  i	-16.3%
74) O=C(CSc1nc2[nH]ncc2c(=O)[nH]1)NCc1ccccc1
  i	-12.6%
75) CC(=NCCN1CCN(C(C)=C2C(=O)c3ccccc3C2=O)CC1)C1=C(O)CC(C)(C)CC1=O
  i	3.7%
76) O=C(CN1CCCC1)Nc1c(C(=O)C2CC2)oc2ccccc12
  -14.4%	-9.2%
77) CN(C)C(=O)/C=C\c1cn(-c2ccccc2)nc1-c1ccc2c(c1)OCCO2
  -16.5%	-16.9%
78) CCC(C)Nc1nc2c(C)cccn2c(=O)c1C=Nc1ccc(OC)cc1 (configuration not stated)
  -12.3%	-6.0%
79) Cc1ccc(N2CCN(C(=O)c3ccccc3NC(=O)/C=C\C(=O)O)CC2)cc1
  -0.1%	1.2%
80) CN(C)c1nc(-c2cn(CCC#N)c3ccccc23)cs1
  -8.5%	-1.4%
81) O=C(/C=C/C(=O)Oc1ccccc1C(=O)O)Oc1ccccc1C(=O)O
  -10.1%	-2.4%
82) C=C(C)C(=O)N1CC2(CC(c3cccc(NC(=O)CC)c3)=NO2)C[C@H]1C(N)=O (some centres not stated)
  i	-2.6%
83) O=C(Cn1cc(Cl)c([N+](=O)[O-])n1)NCCC1=CCCCC1
  ?	-5.9%
84) Cc1cc(Cl)ccc1OCC(=O)OCC(=O)NC1CCCC1
  -12.5%	5.4%
85) Clc1cccc(CN2CCCCC2c2cccnc2)c1 (configuration not stated)
  i	-17.4%
86) Cc1ccc(-n2c(=O)c3oc4ccccc4c3n(Cc3ccccc3)c2=O)cc1C
  -23.5%	-18.2%
87) O=C(Nc1nncs1)c1cccnc1Cl
  i	-1.9%
88) O=C(c1cc(Cl)cc(Cl)c1)N1CCC(=O)N(C(COCc2ccccc2)Cc2ccccc2)CC1 (configuration not stated)
  -5.3%	?
89) CCNc1cc(=O)n(C)c(=O)n1C
  ·	-19.4%
90) CNc1nc(-c2ccc3c(c2)CCN3S(=O)(=O)c2ccccc2)c(C)s1
  i	-10.3%

An excerpt of these results, with one line to a screen.
(74) O=C(CSc1nc2[nH]ncc2c(=O)[nH]1)NCc1ccccc1
(75) CC(=NCCN1CCN(C(C)=C2C(=O)c3ccccc3C2=O)CC1)C1=C(O)CC(C)(C)CC1=O
(76) O=C(CN1CCCC1)Nc1c(C(=O)C2CC2)oc2ccccc12
Compound	74	75	76
VACV mCherry inh	i	i	-14.4%
VACV Venus inh	-12.6%	3.7%	-9.2%

Returning to the listing, repeating the 6 entries before the break.
Fields – VACV mCherry inh	VACV Venus inh
85) Clc1cccc(CN2CCCCC2c2cccnc2)c1 (configuration not stated)
  i	-17.4%
86) Cc1ccc(-n2c(=O)c3oc4ccccc4c3n(Cc3ccccc3)c2=O)cc1C
  -23.5%	-18.2%
87) O=C(Nc1nncs1)c1cccnc1Cl
  i	-1.9%
88) O=C(c1cc(Cl)cc(Cl)c1)N1CCC(=O)N(C(COCc2ccccc2)Cc2ccccc2)CC1 (configuration not stated)
  -5.3%	?
89) CCNc1cc(=O)n(C)c(=O)n1C
  ·	-19.4%
90) CNc1nc(-c2ccc3c(c2)CCN3S(=O)(=O)c2ccccc2)c(C)s1
  i	-10.3%
91) COc1cc2nc(Nc3cccc(F)c3)nc(N)c2cc1OC
  ?	?
92) COc1cc(Cl)c(NC(=O)c2cc(CN3CCCC3)on2)c(OC)c1
  2.5%	3.3%
93) CC1CCCC(NC(=O)CCNC(=O)c2ccccc2Cl)C1C (configuration not stated)
  -15.0%	-5.2%
94) Cc1cc(NC(=O)/C=C/c2ccccc2Cl)n(-c2nc3ccccc3[nH]2)n1
  i	-14.4%
95) COc1ccc2[nH]c(=O)c(-c3noc(-c4ccccc4)n3)cc2c1
  ·	-6.4%
96) CC1=CS(=O)(=O)CC1SC(=S)N(C)C1CCS(=O)(=O)C1 (configuration not stated)
  -4.2%	-4.2%
97) Cc1cc(C(=O)OCC(=O)NC2CCC(C)CC2)c(C)o1 (configuration not stated)
  -8.4%	0.6%
98) COc1cccc(-n2cc(C(=O)Nc3cc(C)c(Cl)cc3OC)c3ccccc3c2=O)c1
  -17.3%	-21.1%
99) COc1ccccc1C(=O)NC(CCSC)C(=O)NCCCn1nc(C)cc1C (configuration not stated)
  -18.0%	-9.8%
